High-throughput results (PubChem)
RGS16-Gao HTS = regulators of human RGS16-Galphao interaction | O15492+P09471 | bead-based flow cytometry RGS16-Galphao binding, fluorescence; actives lie on both sides | binding response (% of control), % at 10 µM | 0.38% of 220,000 active;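 active = below 25% or above 175%, edge rows of some plates excepted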;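 note: Galphao activated by GDP with aluminum fluoride before binding; 100% = wells without compound and 0% = beads without RGS; some results beyond the cut were filed as inactive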
Target sequence (O15492 whole entry, looked up): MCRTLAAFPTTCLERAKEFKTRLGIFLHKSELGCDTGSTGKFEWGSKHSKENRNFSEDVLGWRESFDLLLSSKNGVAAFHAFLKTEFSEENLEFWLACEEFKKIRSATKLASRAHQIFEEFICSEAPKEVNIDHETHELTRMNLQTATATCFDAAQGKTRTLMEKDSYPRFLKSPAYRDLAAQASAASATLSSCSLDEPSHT
Target sequence (P09471 whole entry, looked up): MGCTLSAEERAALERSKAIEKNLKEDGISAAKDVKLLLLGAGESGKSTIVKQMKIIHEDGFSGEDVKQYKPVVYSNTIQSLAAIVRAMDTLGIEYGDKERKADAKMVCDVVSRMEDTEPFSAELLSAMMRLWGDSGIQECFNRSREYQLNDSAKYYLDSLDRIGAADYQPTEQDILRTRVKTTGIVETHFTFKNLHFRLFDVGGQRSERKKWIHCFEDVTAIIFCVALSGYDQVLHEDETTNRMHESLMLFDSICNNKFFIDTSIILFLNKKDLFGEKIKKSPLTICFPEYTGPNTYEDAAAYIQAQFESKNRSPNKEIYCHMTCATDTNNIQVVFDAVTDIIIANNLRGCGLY
HSV augment = increases HSV replication in cells; HSV replication augmentation in cells, fold increase; 0.005% of 220,000 active; maximum fold increase;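 active = peak rise of 1.5-fold or more in the series; tested in PC3 cells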;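 note: first round at 10 µM; read as green reporter fluorescence; hits show the peak of a series up to 25 µM; 1 = signal of infected wells without compound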
GALR2 agonist = activates the human galanin receptor 2; GALR2-expressing cells, agonist activation read-out; 0.48% of 140,000 active; activation, %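 (tested at 5 µM)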;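 active = above mean plus 3 SD of all compounds, about 5% in these data, not always enough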;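 note: 0% = vehicle buffer wells and 100% = reference agonist at full effect; tested in CHO reporter cells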
Target sequence (O43603 whole entry, looked up): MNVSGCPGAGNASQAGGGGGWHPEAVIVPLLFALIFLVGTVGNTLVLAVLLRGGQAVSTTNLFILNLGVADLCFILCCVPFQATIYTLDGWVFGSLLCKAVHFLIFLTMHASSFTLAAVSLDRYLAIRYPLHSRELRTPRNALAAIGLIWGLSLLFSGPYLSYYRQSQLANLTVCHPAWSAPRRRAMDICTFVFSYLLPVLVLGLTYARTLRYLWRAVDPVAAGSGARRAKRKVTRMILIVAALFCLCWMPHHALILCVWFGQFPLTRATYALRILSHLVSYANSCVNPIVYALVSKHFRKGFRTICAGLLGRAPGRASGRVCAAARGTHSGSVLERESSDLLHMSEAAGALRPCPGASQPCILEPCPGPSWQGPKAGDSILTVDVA
PKD1 inh = inhibitors of human PKD1 kinase; PKD1 kinase fluorescence polarization assay; 0.056% of 200,000 active; Q15139; inhibition, %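 (about 10 µM by stock and volumes)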; AID 797;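 active = inhibition of 50% or more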;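 note: controls were vehicle for no effect and a reference inhibitor for full effect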
Insulin prom inh = TRM-6 insulin promoter activity inhibition | TRM-6 cells (human fetal islet line), insulin promoter-eGFP reporter, imaging; reporter expression induced with tamoxifen | inhibition, % at 2 µM | 0.9% of 130,000 active | AID 1273;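 active = inhibition above the mean plus 3 SD, with well images judged a real hit on visual review, cut at about 60% in these data, passing the limit was not always enough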
Insulin prom inh cell count = recorded beside Insulin prom inh, whose call it bears; normalized cell count, %; measured here: cell count, toxicity; reference of the scale not given here;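 cells exposed to compound for 48 h; stained nuclei by imaging scaled within each plate; lower means fewer cells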
HSV augment primary fold = second read-out of HSV augment, no call of its own (marks repeat the call); fold increase; compound at 10 µM; measured here: primary screen fold increase 10 uM; tested in PC3 cells;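 GFP signal in the first replicate; 1 = infected wells without compound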
* marks the source's active call; other numbers are inactive results; i = inactive; . = no result given.

Each structure is followed by: RGS16-Gao HTS, HSV augment primary fold, GALR2 agonist, Insulin prom inh, Insulin prom inh cell count, PKD1 inh, HSV augment
C=CCSc1nc(NC)c2sccc2n1
    97.2, 0.94, -1.1, 80.0*, 150.1*, 3.4, i
COc1ccc(N(C(=O)c2ccncc2)S(=O)(=O)c2cccs2)cc1
    106.7, 0.91, ., ., ., ., i
O=Nc1c(O)n(Cc2ccc(Cl)cc2Cl)c2ccccc12
    102.8, 0.81, -3.0, 27.6, 57.7, -9.7, i
CCn1c(SCC(=O)Nc2nc(C)c(C)s2)nnc1-c1ccco1
    99.3, 0.83, -0.2, -3.2, 91.8, -8.7, i
CC(=O)C1=C(O)C(=O)N(c2ccc(O)cc2)C1c1ccc([N+](=O)[O-])cc1 (stereo not given)
    92.7, 0.94, ., ., ., 1.0, i
CCOC(=O)c1ccccc1NS(=O)(=O)c1ccccc1F
    99.7, 0.92, 1.1, ., ., 9.1, i
Cc1cc(N/C=C/C(=O)c2cccs2)ccc1F
    93.5, 1.05, ., ., ., 4.4, i
FC(F)(F)c1ccccc1NC(=S)NN1CCOCC1
    95.3, 0.87, -2.0, -21.4, 159.8, -2.9, i
O=C(Nc1cc(N2CCCCC2)ncn1)c1ccccc1
    111.6, 0.97, ., ., ., -2.8, i
Fc1cccc(CN2CCN(Cc3nc(-c4cnccn4)no3)CC2)c1
    99.4, 0.91, ., ., ., 1.9, i
CCOc1ccc(C(=O)NCc2ccccc2OC)cc1
    103.5, 0.97, -1.1, -65.6, 95.2, -1.5, i
Cc1cc(C)n(C(=O)CCCCCC(=O)n2nc(C)cc2C)n1
    103.8, 0.9, -0.9, -13.6, 201.4, 0.9, i
CCN(CC)C(=O)CSc1nc2ccccc2c(=O)n1CC
    160.1, 0.78, -1.7, -23.6, 112.9, -0.7, i
CCNC(=O)c1ccc(-n2nc(C)cc2-c2ccccc2)cc1
    100.0, 0.94, -1.0, -13.3, 88.5, -4.0, i
CN(C)CC(O)CN(c1ccccc1)c1ccccc1 (stereo not given)
    94.0, 0.92, ., ., ., ., i
O=C(CSc1ccccc1)N(c1ccc(Br)cc1)c1nccs1
    105.6, 0.87, 0.4, -20.7, 113.9, -4.0, i
COc1ccc(C(=O)/C=C/N2CCCCC2)cc1OC
    99.7, 1.17, -0.4, 22.6, 122.5, -5.5, i
COc1cc(CNCCc2ccc(S(N)(=O)=O)cc2)ccc1OCc1ccc(Cl)cc1
    105.5, 0.79, -0.6, ., ., -4.1, i
C/C=C/Cn1c(Br)nc2c1c(=O)n(C)c(=O)n2C
    99.4, 0.87, 1.8, 0.0, 96.0, -2.2, i
CS(=O)(=O)c1ccc(C(=O)Nc2cc(S(C)(=O)=O)ccc2Cl)cc1
    108.3, 0.98, -0.2, ., ., 5.9, i
CC(NC(=O)c1ccc(Cl)cc1)c1nnc(SCc2ccc([N+](=O)[O-])cc2)n1C (stereo not given)
    109.7, ., -2.0, -31.0, 126.2, -5.6, .
O=c1[nH]c(N/N=C/c2cc3c(cc2[N+](=O)[O-])OCO3)nc2ccccc12
    105.6, 0.84, ., ., ., ., i
Cc1ccc(NC(=O)CCn2c(=O)[nH]c3ccsc3c2=O)cc1
    107.5, 0.98, ., 35.0, 144.8, 7.6, i
O=[N+]([O-])c1ccc2nc(CN3CCCCC3)[nH]c2c1
    107.6, 0.95, ., ., ., 0.7, i
O=C(O)C1CC(=O)N(c2ccc(OCc3ccccc3)cc2)C1 (stereo not given)
    111.6, 1.06, -2.4, 16.7, 94.8, -3.4, i
CCOC(=O)c1ccc(NC(=O)CCc2nc(-c3ccc(Cl)cc3)no2)cc1
    97.0, 1.04, -1.0, ., ., 5.3, i
COc1cc(C(O)P(=O)(OC2CCCCC2)c2ccc(N(C)C)cc2)cc(OC)c1OC (stereo not given)
    98.1, 0.88, 0.6, -146.2, 82.2, 4.3, i
CCCn1c(S(=O)(=O)O)nc2ccccc21
    99.7, 0.96, ., ., ., ., i
Cc1ccccc1-c1nc(CN2CCC(C(=O)NCc3ccco3)CC2)c(C)o1
    96.9, 0.84, -1.1, ., ., -3.4, i
Cc1cc(CSc2ccccc2)ccc1NC(=O)c1ccc(Cl)c([N+](=O)[O-])c1
    99.7, 1.05, -1.8, -16.7, 81.3, 2.7, i
CN1CCN(c2ccc([N+](=O)[O-])c(-n3nc(-c4ccccc4)c4ccccc4c3=O)c2)CC1
    97.3, 0.993, -0.3, 10.0, 87.5, -7.1, i
Nc1nnc(-c2cccc([N+](=O)[O-])c2)o1
    100.1, 0.98, ., ., ., ., i
CCN1CCCC1CN(Cc1cc2c(C)cc(C)cc2[nH]c1=O)C(=O)NC1CCCCC1 (stereo not given)
    119.4, 0.977, -0.9, -50.0, 104.9, -9.6, i
COCCn1nnnc1C(CC(C)C)N1CCN(c2ccccc2)CC1 (stereo not given)
    96.8, 0.93, -1.9, 50.0, 132.7, -0.6, i
CC(C)c1ccc(OCC(=O)NC(=S)Nc2ccc3c4c(cccc24)CC3)cc1
    97.0, 0.99, -2.4, -97.1, 100.0, -8.8, i
CC(C)(C)NCC(O)COc1ccccc1C(C)(C)C (stereo not given)
    106.3, 0.83, 0.1, 13.0, 111.2, -5.9, i
CCC/C=N/NC(=O)CNC(=O)c1ccccc1Cl
    103.0, 1.01, ., ., ., -8.7, i
CSCCC(NC(=O)c1cccc(S(=O)(=O)N2CCOCC2)c1)C(=O)Nc1cccc(C)c1 (stereo not given)
    74.5, 1.02, -0.1, 14.8, 84.6, -2.1, i
CCCCCn1c(CCCNC(=O)CC)nc2ccccc21
    104.2, 0.97, -2.4, ., ., -2.7, i
N#C/C(=C\c1ccc(F)cc1)c1n[nH]c(Cn2cncn2)n1
    101.0, 0.89, -1.2, 13.8, 81.3, -13.9, i
COc1ccc(C)cc1NC(=O)c1cnc2scc(C)n2c1=O
    70.9, 0.99, -0.7, -10.0, 164.6, 0.5, i
CC(=O)Nc1ccc(SC[C@H](CC(C)C)N2CCN(CC(C)C)CCC2=O)cc1
    101.6, 0.74, ., ., ., ., i
CSc1ccc(/C=N/N2CCN(Cc3ccc(C)cc3C)CC2)cc1
    95.6, 0.9, ., ., ., 0.7, i
CC(C)C(=O)NC(C)C(c1cccs1)N1CCOCC1 (stereo not given)
    101.9, 1.21, -2.1, ., ., -0.8, i
COC(=O)c1ccccc1NC(=O)/C=C/c1ccco1
    97.7, 1.03, -0.3, -6.7, 146.9, 9.3, i
O=C(O)C1CC=CCC1C(=O)N1CCCC1 (stereo not given)
    102.4, 1.02, -4.4, ., ., -2.3, i
COc1ccccc1N1CCN(C(=O)CN(c2ccccc2OC)S(=O)(=O)c2ccccc2)CC1
    104.3, 0.86, 2.3, -21.6, 33.9, 1.3, i
Cc1nnsc1SCCNC(=O)Nc1ccc(Cl)cc1
    98.5, 0.92, ., ., ., -4.2, i
O=C(NN=C1C2CC3CC1CC(Cl)(C3)C2)c1ccccn1
    102.0, 1.06, ., -23.5, 176.8, 1.1, i
CC(=O)NC(=C(Cl)Cl)S(=O)(=O)c1ccccc1
    100.8, 0.85, ., -31.2, 49.4, -1.4, i
CNC(=S)NNC(=O)c1sccc1OCc1ccccc1
    96.4, 0.96, -1.6, ., ., -6.6, i
COC(=O)c1ccsc1NC(=O)CN1CCN(Cc2ccc3c(c2)OCO3)CC1
    102.6, 0.84, -0.4, ., ., -8.4, i
CC1CN(C(=O)CCN2C(=O)c3ccccc3C2=O)CC(C)O1 (stereo not given)
    108.8, 1.09, -1.7, -6.7, 108.5, -4.2, i
CCO[C@H]1OC(C(=O)NC2CC2)=C[C@@H](c2c[nH]c3ccccc23)[C@@H]1CCCO
    99.4, 0.82, ., ., ., ., i
CC(=O)Nc1ccc(NC(=S)NC(=O)c2ccc([N+](=O)[O-])cc2)cc1
    104.2, 0.92, -0.5, 21.1, 107.4, -12.1, i
COc1ccc(CCNC(=O)CSc2ncnc3c2oc2ccccc23)cc1OC
    103.6, 0.98, -0.5, -9.1, 90.1, -11.9, i
O=S(=O)(c1cccc(-c2nnc3n2CCCCC3)c1)N1CCOCC1
    100.0, 1.08, ., ., ., ., i
Cc1ccc(NC(=O)Cn2c(CCC(=O)O)ccc2-c2cccs2)cc1Cl
    97.2, 1.08, ., ., ., -4.0, i
CSC1=C(C#N)C(CC(C)C)C2=C(CCCC2=O)N1 (stereo not given)
    72.6, 0.93, 0.2, ., ., -2.3, i
CCOC(=O)C1=C(O)C(=O)N(c2ccc(S(N)(=O)=O)cc2)C1c1ccccc1 (stereo not given)
    103.3, 0.95, -1.8, 18.9, 152.6, -1.4, i

Exported field by field: 3 of the compounds above.
CC(=O)C1=C(O)C(=O)N(c2ccc(O)cc2)C1c1ccc([N+](=O)[O-])cc1 (stereo not given)
  RGS16-Gao HTS: 92.7
  HSV augment primary fold: 0.94
  GALR2 agonist: .
  Insulin prom inh: .
  Insulin prom inh cell count: .
  PKD1 inh: 1.0
  HSV augment: i
CC(C)c1ccc(OCC(=O)NC(=S)Nc2ccc3c4c(cccc24)CC3)cc1
  RGS16-Gao HTS: 97.0
  HSV augment primary fold: 0.99
  GALR2 agonist: -2.4
  Insulin prom inh: -97.1
  Insulin prom inh cell count: 100.0
  PKD1 inh: -8.8
  HSV augment: i
COc1ccccc1N1CCN(C(=O)CN(c2ccccc2OC)S(=O)(=O)c2ccccc2)CC1
  RGS16-Gao HTS: 104.3
  HSV augment primary fold: 0.86
  GALR2 agonist: 2.3
  Insulin prom inh: -21.6
  Insulin prom inh cell count: 33.9
  PKD1 inh: 1.3
  HSV augment: i

Going on with the list.
Each structure is followed by: RGS16-Gao HTS, HSV augment primary fold, GALR2 agonist, Insulin prom inh, Insulin prom inh cell count, PKD1 inh, HSV augment
O=C(NCCCCCCNC(=O)OCCO)OCCO
    47.0, 0.95, ., -122.2, 83.0, -0.4, i
Cc1cccc(C)c1NC(=O)C[n+]1cc(-c2ccccc2)n2c1CCC2
    102.8, 1.05, ., ., ., ., i
Cc1ccc(C2(c3noc(CN4CCOCC4)n3)CCCC2)cc1
    93.0, 0.98, ., ., ., -0.8, i
CCOC(=O)c1[nH]ncc1CN1CCCC(C(=O)c2cc(Cl)ccc2OC)C1 (stereo not given)
    105.5, 1.08, ., -80.0, 73.8, -6.5, i
Cc1ccc(-n2[nH]c(C)c(C=Nc3ccc4[nH]c(=O)[nH]c4c3)c2=O)cc1C
    99.9, 0.87, -1.9, 57.1, 77.8, -16.9, i
COCCN1C(=O)c2ccccc2C(C(=O)NCCN(C)C)C1c1ccc(F)cc1 (stereo not given)
    95.7, 0.86, -2.4, 78.6*, 79.5*, -3.6, i
Cc1ccc(Nc2n[nH]c(C)c2[N+](=O)[O-])cc1
    105.1, 1.07, -0.7, ., ., 5.7, i
CC(C)(C)N(NC(=O)OCc1ccccc1)C(=O)c1ccccc1Cl
    98.4, 1.26, -1.2, 0.0, 128.8, -13.5, i
CC(C)Cn1c(SCC#N)nc2ccccc2c1=O
    98.6, 0.783, 0.2, 14.8, 131.9, 2.6, i
CCN(CC)c1cc(Cl)nc(N)n1
    106.1, 1.02, ., -6.7, 94.7, -3.1, i
O=C(Nc1ccc(-c2nnc(-c3ccco3)o2)cc1)C(c1ccccc1)c1ccccc1
    99.2, 0.95, 0.0, -17.4, 88.8, -10.9, i
CCNC(=O)NC(=O)C(C)OC(=O)Cc1coc2cc3c(cc12)CCC3 (stereo not given)
    97.5, ., ., 14.3, 134.5, 0.7, .
Cn1c(NNC(=O)c2ccccc2F)cc(=O)n(C)c1=O
    102.4, 0.96, ., ., ., ., i
COc1ccc(S(=O)(=O)N2CCN(CC(=O)Nc3cccc(F)c3)CC2)cc1
    99.6, ., -2.8, 3.2, 119.1, -2.6, .
CCc1ccc(NC(=O)C(=O)N/N=C(\C)CC(=O)NCCOC)cc1
    106.1, 0.93, ., ., ., 1.0, i
CCN(CC)C(=O)C1CCCN(c2ccc([N+](=O)[O-])cc2/C=N/NC(=O)c2ccccc2)C1 (stereo not given)
    161.7, 0.93, -0.3, -7.1, 79.8, -4.0, i

Outcome played no part in choosing rows. Share with any hit: about 1.3%.
